# Screening results from PubChem BioAssay.
# NPYLR7 agonist – mosquito NPYLR7 agonism; HEK293T NPYLR7/Galpha15, GCaMP6s calcium fluorescence; activation, % at 10 µM; 0.15% of 270,000 active; AID 1259423; in the data active = activation above about 40%;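 note: 0% = vehicle and 100% = reference agonist at the receptor; some compounds past the cut are filed as inactive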
# NPYLR7 agonist max-min – further read-out of NPYLR7 agonist, marked with its call; activation, %; measured here: Max-Min RFU normalised activation; some inactives read as strong as hits;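 span of the calcium signal over five minutes; 0% = vehicle and 100% = native peptide agonist; compound fluorescence can raise it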
# * marks the source's active call; other numbers are inactive results; & = joins results of further samples. These rows are one share of the data; count on the stated rates, not on these rows.
# Every second line gives: NPYLR7 agonist	NPYLR7 agonist max-min
O=C(NCCc1nccc(-c2ccccc2)n1)C1CCC(=O)N(CCN2CCOCC2)C1 (stereo unspecified)
  3	1
CC(C(=O)NC(N)=O)N(C)Cc1ccc(C(=O)NC2CC2)cc1 (stereo unspecified)
  10	9
CC(C)Oc1ccc(C(=O)NCCc2nnc3ccccn23)cc1
  1	-1
COc1ccc(Cl)c2sc(N3CCN(C(=O)CS(=O)(=O)c4ccc(F)cc4)CC3)nc12
  9	6
CC(NCc1cnn(C)c1)c1ccccc1Cl (stereo unspecified)
  6	5
Cc1cn2c3c(=O)n(Cc4ccccc4)c(=O)n(C)c3nc2n1CCN1CCOCC1
  23	16
Cc1cc(C)n2c(NCc3ccccc3)c(-c3ccc(Cl)cc3)nc2c1
  -4	2
COc1nc(-c2ccc3c(c2)OCO3)n(-c2ccc(NC(=O)c3ccc(C(F)(F)F)cc3)cc2)n1
  20	14
O=C(CCC1CCCN(C2CCN(c3ccccc3)CC2)C1)NCc1ccccc1Cl (stereo unspecified)
  -1	-4
CCN(CC)CCOCCOC(=O)N1CCC2(CC1)CC(=O)c1cc(F)ccc1O2
  13	10

# The last 2 records of the part above are carried over, then new ones follow:
# Every second line gives: NPYLR7 agonist	NPYLR7 agonist max-min
O=C(CCC1CCCN(C2CCN(c3ccccc3)CC2)C1)NCc1ccccc1Cl (stereo unspecified)
  -1	-4
CCN(CC)CCOCCOC(=O)N1CCC2(CC1)CC(=O)c1cc(F)ccc1O2
  13	10
CN1CCN(CC(O)COCc2ccc3c(c2)OCO3)CC1 (stereo unspecified)
  0	7
CCCn1ccnc1SC(C(N)=O)c1ccccc1 (stereo unspecified)
  4	4
Cc1ccc(F)cc1NC(=O)CSc1ccc(Br)cc1C
  -7	-10
CC(C)[C@@H]1CC[C@@H](C)C[C@H]1OCC(=O)N1CCC(c2cn(C)c3ccccc23)CC1
  26	23
C=CCNC(=O)C(C)Nc1ccc(C)c(C)c1 (stereo unspecified)
  12	5
Cc1noc(C)c1NC(=O)NCC(Nc1ccccc1)C(C)C (stereo unspecified)
  18	13
COc1ccccc1NS(=O)(=O)c1ccc(N/N=C(\C)c2ccccc2OC)c([N+](=O)[O-])c1
  1	-3
NS(=O)(=O)c1ccc(CCNC(=O)CSc2ncccc2Cl)cc1
  4	3
CN(Cc1ccn(C)c(=O)c1)CC(c1cccs1)N1CCOCC1 (stereo unspecified)
  -1	-3
Cc1ccc(Nc2nc(Nc3cccc(F)c3)nc3nccnc23)c(C)c1
  52*	44*

# Laid out differently: five of the compounds above.
molecule	NPYLR7 agonist	NPYLR7 agonist max-min
Cc1cn2c3c(=O)n(Cc4ccccc4)c(=O)n(C)c3nc2n1CCN1CCOCC1	23	16
CCN(CC)CCOCCOC(=O)N1CCC2(CC1)CC(=O)c1cc(F)ccc1O2	13	10
O=C(NCCc1nccc(-c2ccccc2)n1)C1CCC(=O)N(CCN2CCOCC2)C1 (stereo unspecified)	3	1
CC(C(=O)NC(N)=O)N(C)Cc1ccc(C(=O)NC2CC2)cc1 (stereo unspecified)	10	9
COc1ccccc1NS(=O)(=O)c1ccc(N/N=C(\C)c2ccccc2OC)c([N+](=O)[O-])c1	1	-3

# Further records follow.
# Every second line gives: NPYLR7 agonist	NPYLR7 agonist max-min
O=C(c1ccc(Cn2ccnc2)cc1)N1CCN(C(=O)C2CC2c2ccccc2)CC1 (stereo unspecified)
  -7	-7
Cc1ccc(NC(=O)Cn2nc(C)c3ccccc3c2=O)cc1
  12	5
COc1ccc(CC(=O)NCCOc2ccc3nnc(-c4cccc(OC)c4)n3n2)cc1
  -7	-12
CC(C)(C)N(Cc1ccccc1)C(=O)c1ccccc1Br
  -4	-3
O=C(CN(CC(O)c1ccc(F)cc1)C1CC1)NCc1cccs1 (stereo unspecified)
  -1	-2
Cc1cc(C(=O)CSc2nnnn2C2CCCC2)c(C)n1CC1CCCO1 (stereo unspecified)
  7	8
CS(=O)(=O)c1ccc(CN2CCC(c3ccnc(-c4ccncc4)c3)C2)cc1 (stereo unspecified)
  -4	-5
CCOc1ccc(OCCCOc2ccccc2)cc1
  -5	0
NC(=O)c1cc(-c2csc(CN3CCOC3=O)n2)ccc1O
  -2	2
Cc1cc(CN2CCCC(CO)(Cc3cccc(Cl)c3)C2)n[nH]1 (stereo unspecified)
  9	12
Cc1ccc(CN(Cc2ccc(C(O)(c3cccs3)c3cccs3)o2)C(C)C)o1
  7	12
O=C(NCCn1cccn1)c1cc(Cn2ccc3ccccc32)[nH]n1
  1	-2
CCO/C=C(\C(=O)OCC)c1cc(=O)[nH]c(=O)[nH]1
  4	5
C=c1cc(C)n(CC(=O)Nc2cc(C)ccc2C)c(=O)c1=C1N=C(c2ccc(OC)cc2)NO1
  -2	-4
c1cnc(CCNc2ccc(-c3nc(C4CC4)no3)cn2)cn1
  10	3
O=C(CSc1nc(=O)n(CC2CCCO2)c2c1CCC2)Nc1ccccc1 (stereo unspecified)
  -6	-11
CC(OC(=O)CCc1nc2ccccc2o1)C(=O)NC(C)(C)C (stereo unspecified)
  11	5
Cn1nnnc1SCC(=O)NC1CCCC1
  2	1
Cc1cc(C)n(CC(=O)NCc2ccccc2Cl)c(=O)c1C#N
  5	4
Fc1ccc(CNCc2ccsc2)cc1
  -10	-10
CNC(=O)CN(Cc1ncc(Cl)n1C)c1ccccc1C
  0&-3	-1&-4
C[C@@H]1[C@H]2C[C@@H](C[C@H]1NC(=O)c1ccc(-n3nc(-c4ccc(Cl)cc4)cc3N)cc1)C2(C)C
  17	9
CS(=O)(=O)NCc1ccnc(N2CCN(c3ccc(F)cc3)CC2)c1
  4	0
O=C1CC(CNc2nnc(C3CC3)s2)c2ccccc2N1 (stereo unspecified)
  -1	-1
Cn1c2c(c(=O)n(C)c1=O)C(c1cc([N+](=O)[O-])ccc1O)C1C(=O)c3ccccc3C1=N2 (stereo unspecified)
  -7	-10
CCOC(=O)C1(CCOc2ccccc2)CCN(S(=O)(=O)c2c(C)noc2C)CC1
  7&6	2&6
COC(=O)c1ccc(CSc2nnc3n(N)cnn23)cc1
  4	0
Cc1nn(CC(C)C)c(N(C)C)c1CNCc1ccc(C(C)O)cc1 (stereo unspecified)
  -2	-4
Cc1c(C(=O)NCc2ccc(Cl)c(Cl)c2)sc(=O)n1CCc1ccccc1
  11	8
O=C(Nc1nnc(-c2cc(Cl)sc2Cl)o1)C1CC1
  5	6
O=C(Nc1ccc2c(c1)OCCCO2)C1CC(c2cccc(F)c2)=NO1 (stereo unspecified)
  -1	-2
COc1ccc(C2=NN(C(=O)CN3CCOCC3)C(c3cc(OC)ccc3OC)C2)cc1 (stereo unspecified)
  2	0
CCC(=O)Nc1cc(Cl)ccc1C(=O)N1C[C@H](OC(C)C)[C@@H](O)C1
  9	7
COc1cccc(NC(=O)C2(C)CCN2C(=O)CC2CCCC2)c1 (stereo unspecified)
  5	2
C#CCSc1nc(N)c2c(C)c(C)sc2n1
  0	0
CCC1=C(C(=O)OC)C(c2cccs2)N2C(CC(=O)O)=CSC2=N1 (stereo unspecified)
  28	21
CCOC(=O)C1=C(C)N=c2s/c(=C/c3ccc(OC)c(OC)c3)c(=O)n2C1c1ccc(Cl)cc1 (stereo unspecified)
  -6	-9
Cc1ccoc1C(=O)N(CCN1CCCCCC1)C(C)C
  4	2
CC(C)c1ccc(S(=O)(=O)NCc2ccc3c(c2)OCO3)cc1
  -3	-7
Cc1nc2c(OCCn3cccc3)cccn2c1N(C)C(=O)CCC1CCCC1
  3	-8

# Laid out differently: 2 of the compounds above.
COc1cccc(NC(=O)C2(C)CCN2C(=O)CC2CCCC2)c1 (stereo unspecified)
  NPYLR7 agonist: 5
  NPYLR7 agonist max-min: 2
C#CCSc1nc(N)c2c(C)c(C)sc2n1
  NPYLR7 agonist: 0
  NPYLR7 agonist max-min: 0

# Later entries:
# Every second line gives: NPYLR7 agonist	NPYLR7 agonist max-min
O=C(CSc1ccccn1)N1CC(=O)N(C2CCCCC2)CC(OCc2cccnc2)C1 (stereo unspecified)
  1	-7
Cc1ccc2nc(N3CCN(C(=O)c4cc(C)no4)CC3)sc2c1
  0	2
Cc1cc2nc(-c3ccccc3)c(N3CCCN(C(=O)C(F)(F)C(F)(F)C(F)(F)F)CC3)nc2cc1C
  4	-2
Cc1ccccc1C1CCN(CCn2ccnc2-c2nc[nH]c2C)C1 (stereo unspecified)
  -2	-4
COCCNC(=O)CN1CN(c2ccccc2)C2(CCN(C(=O)c3ccc(Cl)c(Cl)c3)CC2)C1=O
  7	7
Cc1nn(-c2ccc(F)cc2)c(C)c1CNC(C)Cn1cncn1 (stereo unspecified)
  3	2
CCN(CC1CCN(CCc2ccccc2C)CC1)C(=O)c1csc(C)n1
  7	2
CC(=O)NC(C)(C)c1noc(CC2CCCc3ccccc32)n1 (stereo unspecified)
  -21	-23
O=C1CC(C(=O)O)C(C(=O)O)O1 (stereo unspecified)
  -3	-4
COc1cccc(-c2cc(C(=O)NCc3ccc(F)cc3)n3nc(C(C)(C)C)cc3n2)c1
  6&13	5&31
C=CCn1c(SCc2ccc(C(=O)Nc3ccc4c(c3)OCO4)cc2)nnc1-c1ccccc1Cl
  4	14
O=C(CCSc1ccc(F)c(F)c1)N1CCN(S(=O)(=O)c2ccccc2)CC1
  2	8
Cc1ccc(CC(NC(=O)c2sc3ccccc3c2Cl)c2ccccc2)cc1 (stereo unspecified)
  -10	-14
COc1ccccc1C=C1C(=O)N(c2ccccc2)C(=S)N(c2ccccc2)C1=O
  -5	-15
COc1ccc(CCOC(=O)[C@@H]2CCCN2C(=O)c2ccoc2)cc1OC
  -6	-9
C=CCNC(=O)CNC(=O)C1CC1(c1ccccc1)c1ccccc1 (stereo unspecified)
  -8	-13
O=C(CCN(c1nc(C2CC2)nc2ccccc12)C1CC1)NC1CC1
  -3	-1
COCCN(CC(=O)N(Cc1cccn1Cc1ccccc1Cl)CC(C)C)C(=O)C(C)(C)CCl
  -14	-13
OCCC1CN(Cc2cccc3cnccc23)CCN1Cc1ccsc1 (stereo unspecified)
  11	2
CN1CCC(N(C)c2nc(CCN)nc3ccccc23)C1 (stereo unspecified)
  -7	-8
CNC(=O)CC(C)N(C)C(=O)Cc1nc(C)sc1C (stereo unspecified)
  12	3
CCCCCn1c(N2CCN(Cc3c(Cl)cccc3Cl)CC2)nc2c1c(=O)[nH]c(=O)n2C
  15	6
COCc1cc(CNC(=O)c2cn(-c3ccccc3)nn2)[nH]n1
  -3	-4
CCOC(=O)c1ccc(NC(=O)CC2CSc3nc4[nH]ncc4c(=O)n32)cc1 (stereo unspecified)
  0	22
O=C(Nc1cccc(-c2nc3ncccc3o2)c1)c1cccs1
  -2	10
Fc1ccccc1CNCC1(c2ccnc(-c3ccc(Cl)cc3)c2)CC1
  4	2
COc1cccc(C(=O)N(Cc2cccnc2)Cc2nccn2Cc2ccccc2C)c1
  10	26
N=C(N)c1ccc(OCCCCCOc2ccc(C(N)=O)cc2)cc1
  5	-39
COc1ccc(Cn2c(C)cc(O)c(C(c3cccnc3)N3CCN(c4ccccc4)CC3)c2=O)cc1 (stereo unspecified)
  12	4
COc1ccc(C(=O)O)cc1-c1cccc2ccnn12
  3	2
NC(=O)C(Nc1ccc(Cl)cc1)c1ccc(F)cc1 (stereo unspecified)
  -6	-7
NC(=O)c1cc2c(s1)CCN(C(=O)c1ccc(CC3CCCNC3)cc1)C2 (stereo unspecified)
  7	-1
CC(C)C(=O)Nc1ccc([N+](=O)[O-])c(C(F)(F)F)c1
  -8&-12&-4&-6	-13&-18&-7&-3
COC(=O)CN1CCN(c2nc3c(c(=O)[nH]c(=O)n3C)n2Cc2ccc(Br)cc2)CC1
  -1	-1
Cn1cnnc1Sc1ccc(NS(=O)(=O)N2CCc3ccccc3C2)cc1
  5	1
O=C(CCc1ccc(O)cc1)c1c(O)cc(O)cc1O
  -8&4	-12&0
COc1ccccc1C1(CNC(=O)C(=O)Nc2ccc(N3CCCS3(=O)=O)cc2)CCOCC1
  0	-5
CCCN(C/C=C/I)C1CCc2cccc(O)c2C1 (stereo unspecified)
  3	-9
COC(=O)c1[nH]c(C)cc1NC(=O)C1C2CCCCC21 (stereo unspecified)
  14	10
COc1cccc(/C=C2N=C(/C=C/c3ccc(Cl)cc3Cl)OC\2=O)c1
  28	7
COc1cc2c(cc1OC)C(c1cccc(C(F)(F)F)c1)N(C(=O)c1cc(C)oc1C)CC2 (stereo unspecified)
  14	6
COC(=O)C(c1ccccc1Cl)N1CCN(C(=O)Nc2ccccc2F)CC1 (stereo unspecified)
  5	3
CCC(CO)NC(=O)c1c(O)nc2scc(C)n2c1=O (stereo unspecified)
  -2	1
COc1ccc(NC(=O)C2CSCN2C(=O)c2cccnc2)cc1 (stereo unspecified)
  6	0
COc1cc(/C=C2\SC(=Nc3ccccc3)NC2=O)ccc1OCc1ccccc1
  29	9
Clc1ccc2sc(SCc3cn4ccccc4n3)nc2c1
  13	9
CCC(=O)Nc1c(-c2cc(=O)oc3cc(C)cc(C)c23)oc2ccccc12
  1	-2
CC(C)C(=O)NNC(=O)c1ccc(=O)n(Cc2ccc(Cl)cc2)c1
  -13	-20
CCCn1cnc2c1CN(C(=O)COc1ccccc1)[C@H](C(=O)OC)C2
  -8	-10
Cc1cccc(C(=O)NC(C(=O)N2CCOCC2)C2CCN(C(=O)c3ccc(C(F)(F)F)cc3)CC2)c1 (stereo unspecified)
  -1	7

# (listing goes on)
# Every second line gives: NPYLR7 agonist	NPYLR7 agonist max-min
COc1cccc(-n2cc(CN(C)Cc3cccc4nccnc34)cn2)c1
  4	2
CCn1c(C2CCCN(Cc3cc(-c4ccccc4)no3)C2)nn(C)c1=O (stereo unspecified)
  -9	-18
O=C(Cn1ccc([N+](=O)[O-])n1)N1CCc2ccccc21
  -3	-4
c1ccc2oc(SCc3cn4ccccc4n3)nc2c1
  9	4
CCCC(=O)NCC1CCCN(C(=O)c2cccc(C)c2C)C1 (stereo unspecified)
  4	2
O=C1NCCCCC1Sc1n[nH]c(C2CC2)n1 (stereo unspecified)
  -1	-5
